KOR beta-arrestin-1: KOR agonists, beta-arrestin recruitment, primary screen, cell-based, luminescence, uHTS (AID 1777) | KOR beta-arrestin recruitment, luminescence; higher % means a stronger effect | activation, % at 10 µM; hits with a dose series show EC50 in µM | hit rate 0.02% among 280,000; in the data active means activation above about 50%, passing the limit was not always enough; further: a part of the inactive calls stands beside numbers as strong as those of hits
KOR beta-arrestin-2: KOR antagonists, beta-arrestin recruitment, cell-based, luminescence, uHTS (AID 1778) | KOR beta-arrestin recruitment, luminescence, antagonist mode; higher % means a stronger effect | one-dose inhibition, % at 10 µM; IC50 in µM for titrated hits | hit rate 0.091% among 290,000; in the data active means inhibition above about 50%; further: strong numbers were not always called active
Siah-1 displacement: Siah-1 peptide-binding antagonists, primary screen, biochemical, fluorescence polarization, rhodamine-plectin, uHTS (AID 1817) | displacement, % at 20 µM, or IC50 in µM where a hit was titrated | Siah-1 / rhodamine-plectin peptide fluorescence polarization; higher % means a stronger effect | hit rate 0.02% among 290,000;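 active means displacement of at least 50% at 20 µM, with a fluorescence ratio check between 0.3 and a set limit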;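 further: plate controls were Siah plus tracer with DMSO for no effect and tracer alone without Siah for full effect; strong numbers were not always called active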
GPR55 beta-arrestin: GPR55 agonists via beta-arrestin recruitment, primary screen, imaging, U2OS cells, beta-arrestin-GFP redistribution (AID 1961); hit rate 0.048% among 290,000; U2OS GPR55 beta-arrestin-GFP redistribution imaging; higher % means a stronger effect; activation, % at 10 µM; hits with a dose series show EC50 in µM;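 active means activation above 40% with more than 50 cells counted in the well; inconclusive means wells holding fewer than 50 cells, flagged as toxic or sparse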;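 further: U2OS osteosarcoma cells stably expressing GPR55 and beta-arrestin-GFP; plate controls were DMSO negative control for no effect and LPI positive control for full effect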
GPR55 antagonists: inhibition of LPI-stimulated GPR55 beta-arrestin translocation – imaging, U2OS, beta-arrestin-GFP, LPI agonist, primary screen (AID 2013) | U2OS GPR55 beta-arrestin-GFP translocation imaging, LPI antagonism; higher % means a stronger effect | one-dose inhibition, % at 10 µM; IC50 in µM for titrated hits | hit rate 0.13% among 290,000;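 active means spots per cell inhibited over 60%, with over 100 cells counted and total cytoplasm intensity under 500,000; inconclusive means wells with under 100 cells, flagged as likely toxic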;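 further: U2OS cells stably carrying GPR55 and arrestin-GFP stimulated by 5 µM LPI near EC80; imaged beta-arrestin-GFP aggregate spots per cell after agonist stimulation; plate controls were LPI-stimulated DMSO wells for no effect and DMSO wells without LPI for full effect; some results filed as inactive read as strong as hits; confirmed hits need IC50 under 10 µM and bright autofluorescent wells are also inconclusive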
HIV peptide binding: cell-free HIV fusion peptide-binding blockers – biochemical, uHTS, fluorescence dequenching, primary screen (AID 1986); cell-free peptide binding, fluorescence dequenching, 30 min; higher % means a stronger effect; inhibition, % at 20 µM, or IC50 in µM where a hit was titrated; hit rate 0.3% among 290,000; in the data active means inhibition mostly above about 52%, no sharp cut-off; inactive means mostly below about 76%; further: some results filed as inactive read as strong as hits
GPR35 arrestin U2OS: inhibition of zaprinast-stimulated GPR35 beta-arrestin translocation – imaging, U2OS, beta-arrestin-GFP, zaprinast agonist, primary screen (AID 2058); U2OS GPR35 beta-arrestin-GFP translocation imaging, zaprinast antagonism; higher % means a stronger effect; inhibition, % at 10 µM, or IC50 in µM where a hit was titrated; hit rate 0.052% among 290,000;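 active means inhibition of at least 50% with at least 30 cells and total cytoplasm GFP at most 10,000,000; inconclusive means under 30 cells or total GFP of 10,000,000 plus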
AID2073: disruptors of CaV2.2 binding to Mint1 – biochemical, HTRF (AID 2073); hit rate 0.19% among 290,000; HTRF protein-protein interaction, Mint1-CaV2.2; higher % means a stronger effect; one-dose inhibition, % at 20 µM; IC50 in µM for titrated hits; in the data active means inhibition mostly above about 51%, no sharp cut-off; inconclusive means no clear call, values can overlap the other calls; inactive means mostly below about 53%; further: some results filed as inactive read as strong as hits
Starred values were filed as active, the others as inactive; u = inconclusive; x = not tested or not shown. Only part of the results is shown; the hit share may differ from the screen's.

nr	SMILES	KOR beta-arrestin-1	KOR beta-arrestin-2	Siah-1 displacement	GPR55 beta-arrestin
1	CC(C)c1ccc(S(=O)(=O)/N=C2/C=C(Sc3ncn[nH]3)C(=O)c3ccccc32)cc1	8.4%	-42.0%	27.8%	0.1%
2	S=C(NNc1ccnc2cc(Cl)ccc12)Nc1ccccc1Cl	4.8%	-39.8%	-11.1%	0.1%
3	Cc1ccc(-n2nc3c(=O)n(C(C)C(=O)NCCCc4ccccc4)nc(C)c3c2C)cc1 (stereo not drawn)	3.3%	20.0%	4.8%	-0.2%
4	Cc1ccccc1-c1nc(CSc2nc3c(c(=O)[nH]2)CCC3)c(C)o1	5.3%	-36.0%	1.6%	0.2%
5	Cc1c(NC(=O)C(C)N2C(=O)c3ccccc3C2=O)c(=O)n(-c2ccccc2)n1C (stereo not drawn)	2.2%	-10.7%	0.3%	-0.1%
6	Brc1ccc2ncnc(Nc3cccc4ccccc34)c2c1	0.5%	-0.9%	-2.0%	0.0%
7	Cc1[nH]c(=O)c(C(=O)/C=C/c2ccccc2F)c2c1CCCC2	4.4%	5.0%	-3.7%	2.5%
8	CC1(C)N=C(N)N=C(N)N1c1ccc(OCCCOc2ccccc2)c(Cl)c1	0.8%	23.8%	-1.0%	0.0%
9	CN(Cc1ccccc1)S(=O)(=O)c1nnc(NC(=O)c2ccc(F)cc2)s1	1.4%	-3.8%	0.6%	0.8%
10	COc1ccc(CC(=O)Nc2cccc(-c3nnc(-c4ccc(C)cc4)o3)c2)cc1OC	13.3%	-133.2%	1.4%	-0.1%
11	O=C(OCn1ncc(Br)c(Br)c1=O)c1c(F)cccc1F	-1.4%	28.0%	-5.2%	0.0%
12	CCOC(=O)c1sc(NC(=O)c2cc(-c3ccccc3C)nc3ccccc23)c(C#N)c1C	3.7%	-9.9%	2.7%	0.6%
13	Cc1nc2ccc(NS(=O)(=O)c3ccc(F)c(C)c3)cc2[nH]1	1.2%	-17.1%	-1.3%	0.2%
14	COc1ccc(NS(=O)(=O)c2cccc(NC(=O)c3ccc(S(=O)(=O)N4CCCCCC4)cc3)c2)cc1	0.2%	x	7.5%	-0.2%
15	S=c1[nH]nc(-c2cc(-c3ccccc3)n[nH]2)n1/N=C/C(Br)=C/c1ccccc1	3.7%	-50.8%	-2.7%	-0.2%

nr	GPR55 antagonists	HIV peptide binding	GPR35 arrestin U2OS	AID2073
1	-7.3%	25.9%	-8.8%	3.6%
2	-1.0%	-0.4%	-10.5%	-7.5%
3	9.0%	0.6%	-4.6%	-0.7%
4	0.1%	0.7%	-2.4%	3.3%
5	8.4%	0.6%	2.5%	35.2%
6	10.8%	-3.2%	-2.1%	-1.9%
7	14.3%	-3.1%	8.4%	6.0%
8	7.7%	1.1%	-1.9%	15.1%
9	5.3%	-1.1%	1.6%	25.9%
10	9.5%	4.0%	-14.7%	6.6%
11	-5.4%	-2.1%	21.8%	-7.1%
12	-36.6%	52.8%	-17.7%	37.6%
13	7.1%	-0.5%	24.6%	8.2%
14	0.6%	3.1%	6.6%	16.2%
15	13.9%	4.3%	-1.6%	4.8%

Filtered by structure, the compounds so far containing an NH in an aromatic ring
nr	SMILES	KOR beta-arrestin-1	KOR beta-arrestin-2	Siah-1 displacement	GPR55 beta-arrestin
1	CC(C)c1ccc(S(=O)(=O)/N=C2/C=C(Sc3ncn[nH]3)C(=O)c3ccccc32)cc1	8.4%	-42.0%	27.8%	0.1%
4	Cc1ccccc1-c1nc(CSc2nc3c(c(=O)[nH]2)CCC3)c(C)o1	5.3%	-36.0%	1.6%	0.2%
7	Cc1[nH]c(=O)c(C(=O)/C=C/c2ccccc2F)c2c1CCCC2	4.4%	5.0%	-3.7%	2.5%
13	Cc1nc2ccc(NS(=O)(=O)c3ccc(F)c(C)c3)cc2[nH]1	1.2%	-17.1%	-1.3%	0.2%
15	S=c1[nH]nc(-c2cc(-c3ccccc3)n[nH]2)n1/N=C/C(Br)=C/c1ccccc1	3.7%	-50.8%	-2.7%	-0.2%

nr	GPR55 antagonists	HIV peptide binding	GPR35 arrestin U2OS	AID2073
1	-7.3%	25.9%	-8.8%	3.6%
4	0.1%	0.7%	-2.4%	3.3%
7	14.3%	-3.1%	8.4%	6.0%
13	7.1%	-0.5%	24.6%	8.2%
15	13.9%	4.3%	-1.6%	4.8%

Of the compounds above, 3 have two or more sulfur atoms:
nr	SMILES	KOR beta-arrestin-1	KOR beta-arrestin-2	Siah-1 displacement	GPR55 beta-arrestin
1	CC(C)c1ccc(S(=O)(=O)/N=C2/C=C(Sc3ncn[nH]3)C(=O)c3ccccc32)cc1	8.4%	-42.0%	27.8%	0.1%
9	CN(Cc1ccccc1)S(=O)(=O)c1nnc(NC(=O)c2ccc(F)cc2)s1	1.4%	-3.8%	0.6%	0.8%
14	COc1ccc(NS(=O)(=O)c2cccc(NC(=O)c3ccc(S(=O)(=O)N4CCCCCC4)cc3)c2)cc1	0.2%	x	7.5%	-0.2%

nr	GPR55 antagonists	HIV peptide binding	GPR35 arrestin U2OS	AID2073
1	-7.3%	25.9%	-8.8%	3.6%
9	5.3%	-1.1%	1.6%	25.9%
14	0.6%	3.1%	6.6%	16.2%

(next part)
nr	SMILES	KOR beta-arrestin-1	KOR beta-arrestin-2	Siah-1 displacement	GPR55 beta-arrestin
16	CC(C)CC[n+]1ccccc1/C=C/c1ccc(N(C)C)cc1	0.4%	25.0%	0.4%	-0.2%
17	CC(C)(C)OC(=O)NCC(=O)Oc1cc2oc(=O)cc(-c3ccccc3)c2cc1Cl	-3.2%	22.6%	-4.4%	0.8%
18	Cc1ccc(S(=O)(=O)Nc2ccc(O)c3ccccc23)c(C)c1	5.0%	-32.3%	-5.4%	0.4%
19	COc1ccc(C(=O)Nc2ccc(-c3ccc(C)o3)cc2)cc1S(=O)(=O)N1CCOCC1	-2.3%	25.7%	3.0%	-0.1%
20	O=C(CNC(=O)/C(=C\c1ccccc1)NC(=O)c1ccc(Br)cc1)OCc1ccccc1	-1.8%	9.9%	-1.6%	-0.1%
21	O=C(COc1ccc(Br)cc1Cl)NC(=S)N1CCc2ccccc21	-9.1%	42.2%	-3.7%	-0.3%
22	CCCCCCc1cc2cc(S(=O)(=O)c3ccc(F)c(Cl)c3)c(=O)oc2cc1O	5.1%	-8.9%	5.8%	0.1%
23	Cc1ccc(C(=O)NC(=C(Cl)Cl)S(=O)(=O)c2ccccc2)cc1	-2.0%	-21.8%	0.9%	-0.3%
24	Cc1ccc(C)c(NC(=O)c2ccccc2NS(=O)(=O)c2cc([N+](=O)[O-])ccc2C)c1	2.6%	-54.2%	2.2%	-0.3%
25	O=C(NCCCSc1ccccc1)c1cc(Br)ccc1O	3.1%	36.3%	-1.5%	0.0%
26	COc1cc(C(=O)N/N=C(\c2ccccc2)c2ccccn2)cc(OC)c1OC	-5.5%	6.6%	4.5%	-0.1%
27	COc1ccc(-c2cc(=O)oc3cc(OC(=O)C4CCCCC4)c(Cl)cc23)cc1	2.4%	-10.1%	-4.0%	-0.3%
28	CCCC(Oc1ccc(Br)cc1)c1nc2c3cc(OC)c(OC)cc3nc(=S)n2[nH]1 (stereo not drawn)	-8.6%	35.8%	-2.0%	-0.1%
29	N#CC1=C(SCC(=O)NC23CC4CC(CC(C4)C2)C3)NC(=O)C(C#N)C12CCCCC2 (stereo not drawn)	4.1%	-15.6%	-1.2%	-0.1%
30	O=C(CSc1nnc2c(n1)[nH]c1ccccc12)NC1CCCCC1	-1.8%	5.1%	1.4%	-0.1%

nr	GPR55 antagonists	HIV peptide binding	GPR35 arrestin U2OS	AID2073
16	8.7%	25.9%	15.0%	11.8%
17	3.7%	12.0%	12.1%	37.2%
18	-1.8%	22.7%	-6.0%	-101.1%
19	-2.6%	0.3%	-0.7%	-18.0%
20	-2.8%	-0.7%	22.0%	-3.6%
21	-2.7%	2.4%	x	-5.3%
22	5.3%	11.0%	-9.3%	-3.3%
23	18.0%	-0.1%	-0.9%	-0.7%
24	9.9%	47.1%	-13.6%	-2.4%
25	7.4%	3.9%	2.0%	5.0%
26	-0.6%	0.7%	22.3%	5.0%
27	-10.5%	3.7%	-3.1%	29.4%
28	22.0%	-0.6%	-9.6%	21.6%
29	-4.0%	4.7%	-0.8%	u
30	3.7%	-1.2%	1.3%	13.3%

Going on with the list.
nr	SMILES	KOR beta-arrestin-1	KOR beta-arrestin-2	Siah-1 displacement	GPR55 beta-arrestin
31	Cc1ccc(-n2nc3c(=O)n(C(C)C(=O)NCCc4cccs4)nc(C)c3c2C)cc1 (stereo not drawn)	-2.4%	-7.5%	-0.8%	-0.1%
32	CCOc1cc(/C=C2\CN(C)C/C(=C\c3ccc(O)c(OCC)c3)C2=O)ccc1O	0.6%	28.2%	2.0%	0.5%
33	O=C(Cn1c(SCC(=O)N2CCc3ccccc3C2)nc2ccccc21)NC1CCCC1	x	x	-4.1%	0.2%
34	Cc1cc(NC(c2cccnc2)c2ccc3cccnc3c2O)no1 (stereo not drawn)	-3.8%	4.4%	-7.3%	-0.2%
35	COc1cccc(C(=O)c2sc(NC(C)C)nc2N)c1	-3.1%	-12.8%	0.9%	0.2%
36	CC(C)[N+]1(C)[C@@H]2CC[C@H]1CC(OC(=O)C(CO)c1ccccc1)C2 (stereo partly drawn)	-2.1%	11.5%	8.2%	0.2%
37	O=C(COC(=O)c1ccccc1C(=O)c1ccc(Cl)c([N+](=O)[O-])c1)NC1CC1	1.5%	-8.2%	0.0%	0.3%

nr	GPR55 antagonists	HIV peptide binding	GPR35 arrestin U2OS	AID2073
31	-12.3%	-0.2%	12.8%	-9.6%
32	4.0%	2.7%	2.3%	-18.6%
33	-14.7%	-0.8%	26.2%	-4.8%
34	5.4%	-1.5%	-6.4%	-0.8%
35	-4.3%	-1.4%	-22.3%	-22.1%
36	4.9%	3.0%	4.7%	7.5%
37	19.7%	0.3%	8.2%	-13.2%
